Bioassay records as filed in PubChem BioAssay.
MT1-MMP reporter: inhibitors of MT1-MMP promoter transcription, cell-based, luciferase reporter, luminescence (AID 618); MT1-MMP promoter luciferase reporter cells, luminescence; 87,000 compounds, 0.62% hits; calls from a first round at 10 µM; hits with a dose series show EC50 in µM;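 active means over half of the reporter light lost at 10 µM or EC50 under 50 µM; inactive means the rest and hits that failed the dose series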;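 further: actives suppress MT1-MMP promoter-driven transcription so potencies describe inhibitors; HT1080 fibrosarcoma cells; overnight exposure; toxic or luciferase-blocking compounds were not removed from the actives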
WNV NS2B-NS3 inh: inhibitors of WNV NS2B-NS3 protease, primary screen, biochemical, fluorogenic substrate; fluorogenic substrate Ex360/Em465; stronger effect = lower value; z-score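 (tested at a level between 10 and 100 µM)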; 65,000 compounds, 0.18% hits; Genome polyprotein (West Nile virus), P06935;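 active means z-score at -3 or under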;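 further: score is relative to mean and spread of the compound wells of a plate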
Target sequence (P06935 1371-1501 limits assumed): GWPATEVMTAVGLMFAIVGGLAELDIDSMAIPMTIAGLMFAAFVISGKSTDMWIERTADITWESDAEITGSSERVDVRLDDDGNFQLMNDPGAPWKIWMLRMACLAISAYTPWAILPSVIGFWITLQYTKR
Target sequence (P06935 1502-1679 limits assumed): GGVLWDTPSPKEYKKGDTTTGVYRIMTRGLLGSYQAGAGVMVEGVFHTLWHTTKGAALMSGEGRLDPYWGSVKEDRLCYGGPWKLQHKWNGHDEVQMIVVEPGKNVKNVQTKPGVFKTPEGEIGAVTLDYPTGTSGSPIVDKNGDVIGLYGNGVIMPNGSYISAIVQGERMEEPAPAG
Hsc70 ATP site: Hsc70 inhibitors, probe displacement, primary screen, biochemical, fluorescence polarization (AID 568); 83,000 tested, under 10 active; Hsc70 fluorescence polarization, probe displacement; higher % means a stronger effect; strong numbers were not always called active; Heat shock cognate 71 kDa protein (Homo sapiens); displacement, % at 20 µM, or IC50 in µM where a hit was titrated;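 active means displacement above 50% without optical interference and an IC50 on retest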;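 further: ATPase domain with a fluorescein-tagged ATP probe; 0% = vehicle and 100% = excess ADP; read after one hour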
Starred values were filed as active, the others as inactive; i = inactive; nt = no result given. Compounds as they come (roughly 0.77% active in at least one column).

SMILES | MT1-MMP reporter | WNV NS2B-NS3 inh | Hsc70 ATP site
Cc1ccc(S(=O)(=O)Cc2csc(N)n2)cc1 | i | 0.12 | -0.2%
O=C(C1CCCCC1)N1CCC(c2nc3c(nnn3Cc3c(F)cccc3Cl)c(=O)[nH]2)CC1 | i | 0.68 | 2.0%
COc1ccc(-c2nc(CSCC(=O)N3CCc4ccccc43)c(C)o2)cc1OC | i | -0.38 | 3.6%
O=C(NCC(=O)N(CC1CCCO1)C(C(=O)NC1CCCCC1)c1ccc(F)cc1)c1ccco1 (stereo unspecified) | i | -0.58 | -3.2%
COc1cccc(-c2cc(C(=O)N3CCCCCC3)no2)c1 | i | 0.32 | 2.2%
Cc1cc(C)c(C#N)c(SCC2COc3ccccc3O2)n1 (stereo unspecified) | i | -0.46 | 4.7%
CC(=O)c1c(C)nc2nonc2c1N | i | 0.83 | 2.2%
CSc1cccc(NC(=O)CN(c2ccc(C)cc2C)S(C)(=O)=O)c1 | i | -0.93 | 0.9%
CC(=O)NC12CC3CC(C1)CC(C(=O)OCC(=O)Nc1ncc(Cl)c(C)c1Cl)(C3)C2 | i | -0.69 | 11.3%
CCCn1c(SCC(=O)NCc2ccco2)nnc1C(C)C | i | 1.72 | -6.7%
COC(=O)CCC(=O)Nc1cccc(Cl)c1 | i | 0.26 | 4.4%
COc1ccccc1NC(=O)CN1CCC(n2c(C)nc3cc(F)ccc32)CC1 | i | 1.04 | -2.5%

Structural class: the compounds so far containing fluorine (three)
SMILES | MT1-MMP reporter | WNV NS2B-NS3 inh | Hsc70 ATP site
O=C(C1CCCCC1)N1CCC(c2nc3c(nnn3Cc3c(F)cccc3Cl)c(=O)[nH]2)CC1 | i | 0.68 | 2.0%
O=C(NCC(=O)N(CC1CCCO1)C(C(=O)NC1CCCCC1)c1ccc(F)cc1)c1ccco1 (stereo unspecified) | i | -0.58 | -3.2%
COc1ccccc1NC(=O)CN1CCC(n2c(C)nc3cc(F)ccc32)CC1 | i | 1.04 | -2.5%

Next part.
SMILES | MT1-MMP reporter | WNV NS2B-NS3 inh | Hsc70 ATP site
Cc1ccsc1C(=O)OCc1nc2ccccc2c(=O)[nH]1 | i | nt | 10.9%
COc1ccccc1NC(=O)CC1C(=O)NCCN1C(=O)Nc1ccc(Cl)c(Cl)c1 (stereo unspecified) | i | 0.45 | -5.8%
COc1cc(OC)cc(C(=O)NCC(=O)N2CCCCC2)c1 | i | -0.62 | -6.2%
O=S(=O)(Nc1nc2ccccc2[nH]1)c1ccc2ccccc2c1 | i | nt | -1.3%
CC(O)CNCc1cccc2ccccc12 (stereo unspecified) | i | nt | 0.4%
Cc1cc(C(=O)CSCCCn2c(=O)[nH]c3ccccc32)c(C)n1C | i | -0.19 | -1.6%
O=C(C1CC1)N1CCc2cc(S(=O)(=O)NC3CCN(Cc4ccccc4)CC3)ccc21 | i | -0.19 | 0.5%
COc1ccc2c(c1)c1ncn(Cc3ccco3)c(=O)c1n2C | i | 0.57 | -3.2%
CCCCn1nnnc1NCc1cc(OC)c(OC)c(OC)c1 | i | -0.58 | 1.8%
CCOc1ccc(C2N(c3ccc(F)cc3)C(=O)C3CCCN32)cc1 (stereo unspecified) | i | -0.15 | 1.6%
COc1ccc(S(=O)(=O)N2CCC(C(=O)NCCC3=CCCCC3)CC2)cc1C | i | nt | -1.9%
O=C(Nc1ccccc1)C1CCCCC1 | i | nt | -1.6%
CCn1c(-c2ccc(N(C)C)cc2)nc2ccccc21 | i | 0.77 | -2.1%
O=C(Cc1c(F)cccc1Cl)NCC1CCCO1 (stereo unspecified) | i | 0.02 | 4.1%
CN1CCN(C(=O)c2cc3c(ccc4ccccc43)oc2=O)CC1 | i | 1.59 | 7.9%
CCOc1ccc2c(c1)sc1nc(C(=O)OC)cc(=O)n12 | i | 0.38 | 0.1%
CN(C1CCCCC1)S(=O)(=O)c1ccc(S(=O)(=O)N2CCCC2)cc1 | i | -0.66 | 11.5%
O=C(C1CCC1)N(CCc1ccccc1)Cc1nc2ccccc2c(=O)[nH]1 | i | -0.52 | -1.0%
O=C(Cn1cnc2c(cnn2-c2ccc(F)cc2)c1=O)OCc1ccccc1 | i | -0.52 | 2.2%
COc1ccc2nc(NC(=O)c3cnccn3)sc2c1 | i | -1.99 | -1.1%
O=C(Cn1nnc(-c2ccc(S(=O)(=O)N3CCCC3)cc2)n1)Nc1ccccc1-n1cccc1 | i | -0.21 | 1.9%
CN1C(=O)N(C)C2(c3ccccc3)NC(=O)NC12c1ccccc1 (stereo unspecified) | i | 1.24 | 2.2%
CC(=O)Nc1ccc(S(=O)(=O)Nc2nc3n(n2)C(c2ccccc2)CC(=O)N3)cc1 (stereo unspecified) | i | -0.05 | -0.6%
CCC(=O)Nc1nc2n(n1)C(c1ccc(OC)cc1)C=C(c1ccccc1)N2 (stereo unspecified) | i | nt | 1.6%
CN(C(=O)CN1CCC(NC(=O)C2CCCCC2)CC1)C1CCCCC1 | i | -0.11 | 3.1%
CC1=C(C(=O)OC(C)C)C(C)C(C(=O)OC(C)C)=C(C)N1 | i | -1.25 | -0.4%
CC(C)Oc1ccc(C2NC(=O)NC2=O)cc1 (stereo unspecified) | i | 1.47 | -0.8%
Fc1cccc(-c2cc3nc4c(c(N5CCOCC5)n3n2)CCCC4)c1 | i | -0.97 | -6.2%
CC(C)C1=C2CCCCC2NC(=O)N1 (stereo unspecified) | i | 0.59 | 1.0%
CCOC(=O)C1CCCN(c2c(NCCCN3CCCC(C)C3)c(=O)c2=O)C1 (stereo unspecified) | i | -0.12 | 6.7%
CN1C(=O)CC(NNC(=O)c2ccc(Cl)cc2)C1=O (stereo unspecified) | i | nt | -4.1%
Cc1onc(-c2ccccc2)c1C(=O)NCc1ccco1 | i | -2.23 | 2.8%
c1ccc(Cn2nnnc2C(c2cccs2)N2CCCCCC2)cc1 (stereo unspecified) | i | -0.17 | -7.0%
COc1cc(-c2nc3cnccn3c2Nc2c(C)cccc2C)ccc1O | i | nt | -0.4%
Cc1ccccc1-n1c(Cn2c(=O)sc3ccccc32)nnc1SCC(=O)Nc1nccs1 | i | 0.88 | 2.9%
CC(C)C(=O)Nc1nnn(C)n1 | i | 0.67 | -5.9%
O=C(CSCSCC(=O)NCC1CCCO1)NCC1CCCO1 (stereo unspecified) | i | -0.22 | -1.7%
CCCCNCCCOc1cccc(Cl)c1 | i | 2.01 | -0.6%
COc1cccc(C(CC(=O)NCCN2CCOCC2)NS(=O)(=O)c2ccc(C)cc2)c1OC (stereo unspecified) | i | 0.000802 | -4.8%
O=C(COc1ccccc1)Nc1nn[nH]n1 | i | -0.91 | 7.7%
CCCn1nc(NS(C)(=O)=O)c2cc3cccc(C)c3nc21 | i | -0.03 | -7.2%
CN1CCN(c2ccc(S(=O)(=O)N3CCCCC3)cn2)CC1 | i | nt | 3.4%
COc1cccc(Oc2cn[nH]c2-c2ccc(O)cc2O)c1 | i | 0.34 | 3.2%
CCCCn1c(SCC(=O)N2CC(=O)Nc3ccccc32)nnc1-c1ccoc1C | i | -0.67 | -3.5%
CCNc1nc(NCC)nc(OCCNS(=O)(=O)c2cc(C)ccc2C)n1 | i | 1.22 | -3.8%
O=C(CN1C(=O)CCSc2ccccc21)Nc1ccccc1 | i | -0.88 | -0.7%
CCCc1cc(=O)n2[nH]c(C)nc2n1 | i | 0.09 | -5.8%
COCCCn1c2nc3ccccc3nc2c2c(=O)n(-c3ccccc3OC)cnc21 | i | -0.48 | 1.2%
CCN(CC)S(=O)(=O)c1ccc(NC(=O)c2ccccc2N(C)S(C)(=O)=O)cc1 | i | nt | -2.8%
O=C(OCc1nc2ccccc2s1)[C@@H]1CCCN1S(=O)(=O)c1ccccc1F | i | nt | -2.1%
CN1C(=O)COc2ccc(C(=O)c3oc4ccccc4c3-c3cnc4c(c3)COc3ccccc3-4)cc21 | i | nt | -1.2%
Cc1occc1C(=O)Nc1cccc(C(=O)NCc2ccccc2)c1 | i | -0.53 | 4.6%
O=C1CC(c2ccccc2)CC(O)=C1C=NCCCN1CCOCC1 (stereo unspecified) | i | -0.82 | 5.7%
CC1(C)Nc2ccc(O)cc2-c2c1ssc2=S | i | 0.53 | -0.3%
O=C(CCCN1C(=O)c2ccccc2C1=O)NC1CCCCCC1 | i | nt | 1.6%
COc1cccc(-c2nc(S(=O)(=O)c3ccccc3)c(N3CCOCC3)o2)c1 | i | -0.88 | 0.1%
C=C1CSc2nc(=O)c3c4c(sc3n21)CCCC4 | i | 0.15 | 2.8%
CCOC(=O)c1c(C)[nH]c(C(=O)COC(=O)c2ccccc2NC(=O)c2ccco2)c1C | i | 0.61 | -19.4%
Cn1nccc1C(=O)c1ccc(Cl)cc1 | i | -0.67 | -11.6%
CCOc1ccc(NC(=O)CN2CCN(CC(=O)Nc3cccc(F)c3)CC2)cc1 | i | 0.78 | -3.9%

The list continues:
SMILES | MT1-MMP reporter | WNV NS2B-NS3 inh | Hsc70 ATP site
CCC(C)n1c(-c2ccco2)nc2nc3ccccc3nc21 (stereo unspecified) | i | nt | -1.5%
Cn1c(=O)n(CCc2ccccc2)c(=O)c2c1ncn2Cc1ccccc1 | i | -1.33 | -2.9%
Cc1cc(C)n(-c2nnc(C)n2N)n1 | i | -0.4 | 1.9%
COc1cccc(C2CC(c3ccc(Cl)cc3Cl)n3nc(N)nc3N2)c1 (stereo unspecified) | i | 0.08 | -1.2%
Cc1nc(=S)n(-c2ccccc2)[nH]1 | i | -0.27 | -1.8%
Cc1nc(-c2ccccc2O)n(S(=O)(=O)N(C)C)n1 | i | 0.35 | 1.0%
CCC(C)[C@H](NC(=O)NC1CC1)C(=O)O (stereo partly specified) | i | -0.94 | -2.2%
COc1ccc(C(C(C(=O)c2ccco2)N2CCOCC2)N2CCOCC2)cc1 (stereo unspecified) | i | 0.63 | 3.1%
CC(=O)c1cccc(NC(=O)CN(Cc2ccccc2)S(C)(=O)=O)c1 | i | 1.01 | 6.9%
COc1ccc(NC(=O)CSc2nccc(C)n2)cc1 | i | -0.53 | 0.0%
COC(=O)c1sc(N)c(C(=O)OC)c1COC(=O)C1CC(=O)N(Cc2ccco2)C1 (stereo unspecified) | i | 0.24 | 7.9%
COc1ccc(OCc2nnc3n2N=C(c2ccc(C)cc2)CS3)cc1 | i | -0.42 | 4.0%
CCCSC1=N/C(=C\c2ccc3c(c2)OCO3)C(=O)S1 | i | nt | -0.7%
N#CCCCSc1ncccc1-c1nc2ccccc2[nH]1 | i | -1.42 | -0.7%
COc1cc(C2NC(C(=O)O)Cc3c2[nH]c2ccccc32)cc(OC)c1OC (stereo unspecified) | i | nt | 8.0%
COc1ccc(NC(=O)CN(C2CCCCC2)S(C)(=O)=O)cc1Cl | i | nt | 0.1%
COCCn1c(SCCN2CCOCC2)nc2c1c(=O)[nH]c(=O)n2C | i | 0.08 | 2.3%
O=C(COc1ccccc1)N1CCN(c2ncnc3c2cnn3-c2ccccc2)CC1 | i | -0.01 | 1.4%
C[C@H](C(=O)O)c1n[nH]c(=O)c2ccccc12 | i | -0.21 | 2.5%
c1ccc2c(Cn3ccnc3)c[nH]c2c1 | i | -0.24 | -2.3%
O=C(c1noc2c1CCCC2)N1CCN(c2ccccc2)CC1 | i | 0.56 | 0.8%
CC(C)Cc1ccc(S(=O)(=O)N2CCOCC2)cc1 | i | nt | 6.2%
Cc1ccc(SC/C(O)=C(\C#N)c2nc3ccccc3s2)cc1 | i | -0.24 | -1.7%
CS/C(=N\S(=O)(=O)c1ccc(N)cc1)NS(=O)(=O)c1cccs1 | i | 0.97 | -8.3%

Compounds listed so far containing a thiophene ring, fused or not, in the order listed:
SMILES | MT1-MMP reporter | WNV NS2B-NS3 inh | Hsc70 ATP site
Cc1ccsc1C(=O)OCc1nc2ccccc2c(=O)[nH]1 | i | nt | 10.9%
c1ccc(Cn2nnnc2C(c2cccs2)N2CCCCCC2)cc1 (stereo unspecified) | i | -0.17 | -7.0%
C=C1CSc2nc(=O)c3c4c(sc3n21)CCCC4 | i | 0.15 | 2.8%
COC(=O)c1sc(N)c(C(=O)OC)c1COC(=O)C1CC(=O)N(Cc2ccco2)C1 (stereo unspecified) | i | 0.24 | 7.9%
CS/C(=N\S(=O)(=O)c1ccc(N)cc1)NS(=O)(=O)c1cccs1 | i | 0.97 | -8.3%

(list continues)
SMILES | MT1-MMP reporter | WNV NS2B-NS3 inh | Hsc70 ATP site
CC1CC(C(F)(F)C(F)(F)F)n2nc(C(=O)O)cc2N1 (stereo unspecified) | i | -0.67 | -2.0%
CCCN1CCCc2cc(CN)ccc21 | i | -0.87 | 40.7%
CCc1nc2sc3c(c2c(=O)n1NC(=O)CCl)CCCC3 | i | nt | 7.2%
O=C(CN1CCN(C(=O)c2cccc(F)c2)CC1)NC1CCCCC1 | i | 0.71 | -4.3%
COc1ccc(-c2c(C)nn3c(N4CCC(C(=O)NCCN(C)C)CC4)cc(C)nc23)cc1OC | i | 0.34 | -5.9%
CS(=O)(=O)N(CC(=O)Nc1ccc2c(c1)OCO2)Cc1ccccc1 | i | 0.39 | -3.1%
O=C(Nc1ccc2c(c1)OCCO2)NC1(C(F)(F)F)Oc2ccccc2O1 | i | -1.55 | -1.8%
COc1ccc(OC)c(N(CC(N)=O)S(=O)(=O)c2ccc(OC)c(OC)c2)c1 | i | nt | 2.1%
Fc1ccc(Cn2c(-c3cscn3)nc3ccccc32)c(Cl)c1 | i | nt | 2.0%
CC1=CCC(C(=O)O)(C(=O)N/N=C/c2cccs2)C(c2ccc([N+](=O)[O-])cc2)C1 (stereo unspecified) | i | nt | 2.5%
COCCCNC(=O)C1CCCCN1S(=O)(=O)c1ccc(F)cc1 (stereo unspecified) | i | -0.57 | 0.1%
